Screening data from PubChem.
D2 agonist: agonists of human D2 dopamine receptor (beta-arrestin). DiscoveRx PathHunter D2 beta-arrestin, luminescence, 90 min; 100% = 57 uM dopamine signal. activation, % (concentration not given with the values). 0.084% of 360,000 active; in the data active = activation above about 40%; inconclusive = about 15% to 40%; inactive = below about 15%; further: compound concentration not given in the record; the text of the record calls up to 30% inactive
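DiscoveRx PathHunter D2 beta-arrestin cells (2,100/well) attached overnight, then compound-stimulated 90 min at 37 C in HBSS/10 mM HEPES/0.1% Tween-20 buffer; beta-galactosidase complementation read by luminescence after 1 h at ambient temperature. Dopamine 57 uM final (EC100) as control.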
TRPML1 ag: agonists of human TRPML1 channel | activation, % (no concentration beside the values) | TRPML1-expressing cells, Ca2+ dye fluorescence, FDSS; host cell line not named in the record; reference of the full effect not given here | Q9GZU1 | 0.12% of 410,000 active; in the data active = activation above about 50%; inconclusive = about 30% to 50%; inactive = below about 30%; further: 0% is about no effect; the text of the record puts the active cut at 80%
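Calcium fluorescence on an FDSS kinetic reader gave the read-out. Tet-induced TRPML1-DL cells were plated overnight, dye-loaded (Ca8 with quencher, 45-90 min, room temperature, dark), then read 110 s after compound addition, and again 110 s after 4uM final 54-4 (EC80).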
Six1-Eya2 inh: inhibitors of human Six1/Eya2 interaction. activity change, % (test concentration not listed). AlphaScreen GST-Six1/His-Eya2 binding, biochemical; hits give low values; control for the full effect not named in the record. Q15475+O00167. 0.56% of 360,000 active; in the data active = activity change below about -65%; inconclusive = about -30% to -65%; inactive = above about -30%; further: on the % scale 0 is the no-effect control and ±100 the full control effect; compound concentration not given in the record
Target sequence (O00167 whole entry, looked up): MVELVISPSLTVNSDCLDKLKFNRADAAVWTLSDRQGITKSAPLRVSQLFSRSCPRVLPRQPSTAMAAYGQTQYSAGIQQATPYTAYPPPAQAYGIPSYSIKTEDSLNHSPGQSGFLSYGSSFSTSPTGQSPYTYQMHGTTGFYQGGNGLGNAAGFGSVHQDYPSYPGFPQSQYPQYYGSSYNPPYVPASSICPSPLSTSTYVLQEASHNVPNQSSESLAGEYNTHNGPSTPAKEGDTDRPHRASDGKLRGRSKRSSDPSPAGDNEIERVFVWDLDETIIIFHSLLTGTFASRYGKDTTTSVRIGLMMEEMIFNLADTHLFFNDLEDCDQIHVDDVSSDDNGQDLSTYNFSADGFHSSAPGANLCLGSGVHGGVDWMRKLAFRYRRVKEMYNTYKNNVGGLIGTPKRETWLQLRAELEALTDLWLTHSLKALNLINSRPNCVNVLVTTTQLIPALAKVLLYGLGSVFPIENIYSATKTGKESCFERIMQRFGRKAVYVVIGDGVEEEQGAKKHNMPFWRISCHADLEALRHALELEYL
Target sequence (Q15475 whole entry, looked up): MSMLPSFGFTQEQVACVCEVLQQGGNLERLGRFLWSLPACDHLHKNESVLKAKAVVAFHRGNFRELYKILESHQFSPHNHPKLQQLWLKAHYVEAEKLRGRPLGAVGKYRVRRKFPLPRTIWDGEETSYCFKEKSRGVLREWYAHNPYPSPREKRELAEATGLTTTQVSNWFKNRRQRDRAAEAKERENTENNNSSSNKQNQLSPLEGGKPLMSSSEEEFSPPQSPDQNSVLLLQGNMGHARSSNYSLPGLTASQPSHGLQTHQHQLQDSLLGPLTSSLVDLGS
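Homogeneous AlphaScreen proximity assay pairing GST-Six1 with His-tagged Eya2 (added as 5X mix: 250 nM and 500 nM) in 50 mM Tris pH 8.0, 300 mM NaCl, 1 mM TCEP. Glutathione donor and nickel acceptor beads; 1 h, 37 °C, dark.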
CtBP-E1A inh: blocks the CtBP interaction with E1A | AlphaScreen GST-E1A/His-CtBP binding, 1536-well; hits give low values; control for the full effect not named in the record | activity change, % (concentration not given with the values) | 0.49% of 340,000 active | AID 651724; in the data active means activity change below about -65%; inconclusive means about -30% to -65%; inactive means above about -30%; further: on the % scale 0 is the no-effect control and ±100 the full control effect
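GST-E1A and His-tagged CtBP (125 nM each as 5X stock) were preincubated with pin-transferred compound for 2 h at 37 °C in the dark, then glutathione donor and nickel acceptor beads were added for 1 h before AlphaScreen reading.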
PINK1 expr mod: modulators of PINK1 expression; PINK1 immunofluorescence, high-content cytometry, 24 h; Potency, µM (highest dose often 76.6 µM), without a hit: at the highest dose activation (PINK1 increase), hits mostly activators; 0.2% of 410,000 active; AID 624263; active = well fitted activation curve with a large enough effect; inconclusive = small, poorly fitted or top-dose-only effect; inactive = flat fitted curve, though single readings scatter; cell line not stated here;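 further: potency means the concentration at half of the fitted maximal effect; % of control where 0% means no effect; nearly all actives have a fitted effect of over 65% in size; a mitochondrial uncoupler was the plate control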
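Decision-based qHTS: stable cells, 24 h exposure to five compound concentrations, CCCP as control. Fixed cells stained for PINK1 plus nuclear, mitochondrial and cell markers, cytometer read.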
TRPML1 blocker: inhibitors of human TRPML1 channel; Q9GZU1; TRPML1-inducible cells, Ca2+ dye fluorescence, FDSS; hits give low values; inhibition of EC80 agonist-evoked calcium signal; activity change, negative = inhibition, % (concentration not given with the values); 0.02% of 390,000 active; in the data active means activity change below about -50%; inconclusive means about -30% to -50%; inactive means above about -30%;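 further: stimulus is agonist 54-4 at its EC80 concentration; on the % scale 0 is the no-effect control and ±100 the full control effect; compound concentration not given in the record; the text of the record puts the active cut at -80%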
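Calcium fluorescence in TRPML1-DL cells induced overnight with Tet: a 110 s read after compound pin addition, then a 110 s antagonist read after challenge with 54-4 at 4 uM final (EC80).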
* marks the source's active call; other numbers are inactive results; ? = inconclusive; . = not tested or not shown; & = joins results of further samples; [ ] = dose if it differs, or a comment.

SMILES	D2 agonist	TRPML1 ag	Six1-Eya2 inh	CtBP-E1A inh	PINK1 expr mod	TRPML1 blocker
O=C(NN=Cc1ccc2c(c1)OCO2)NN=Cc1ccc2c(c1)OCO2	-1.8	-0.6	-9	-8	-0.1%	-10
COc1ccc2sc(-c3ccc(SC)cc3)c(C#CC(C)(C)O)c2c1	-4.2	-1.1	5	8	11%	-7
COc1ccc(CN(C)C2CCCCC2)cc1	-1.9	1.8	2	2	-3.4%[38.3 µM]	-15
Cc1ccc2nc(NCc3ccccc3)c3nncn3c2c1	.	0.3	.	.	-0.6%	16
O=C(C1CCN(c2nnc(-n3cccc3)s2)CC1)N1CCc2ccccc2C1	-8.7	0.6	1	-7	0.7%	60
Cc1c(C(=O)N2CCOCC2)oc2ccccc12	-4.8	-0.6	-1	1	0.2%	10
Cn1ccc2cc(S(=O)(=O)N3CCCC(C(=O)NCc4ccccc4F)C3)ccc21 (stereo not drawn)	.	0.8	.	.	0.6%	1
CCCN(CCC)CCCNC(=O)Cn1ncn2c(cc3sc(CC)cc32)c1=O	.	-0.2	.	.	1.3%	-12
Cc1cccc(CN2C[C@]34C=C[C@@H](C[C@@H]3S2(=O)=O)O4)c1	0.6	-1.1	-1	0	-1.2%	6
COc1ccc(C(C)=O)cc1COC(=O)c1cc(C)oc1C	4.3	0.9	-7	0	2.1%	3
Cc1[nH]c2ccccc2c1C(=O)C(=O)NCc1nnnn1-c1ccc(F)cc1	-1.2	-0.2	2	1	-0.7%	-11
Cc1cc(N/N=C/c2ccccc2O)c2ccccc2n1	-3.1	-0.2	?	?	13%	0
O=C(NCc1ccccc1)N1CCC(c2nc3ccccc3[nH]2)CC1	-3.5	-0.2	-1	5	17%[38.3 µM]	11
CCOc1ccc(Oc2c(/C=N/NC(N)=O)c(C)nn2-c2ccccc2)cc1	6.3	-0.2	0	0	12%	-1
CC(=O)N(C(C)=O)c1ncc2c([nH]c3ccccc32)c1C#N	-1.9	6.0	0	-5	-1.7%[38.3 µM]	19
CC(NC(=O)CCCOc1ccc(Cl)cc1)c1ccccc1 (stereo not drawn)	-2.2	1.5	0	0	-2.4%	-11
Cc1ccc(CCNS(=O)(=O)c2cc(Br)cnc2N)cc1	3.9	0.1	3	1	3.1%	3
O=C(NC1CCCCC1)c1ccc2c(c1)sc1nc(-c3ccccc3)cn12	.	0.0	.	.	4.7%	13
CCCN(c1ccc(OCC)cc1)c1ncnc2nc[nH]c12	-1.5	-0.2	6	5	0.8%	-16
Cc1ccccc1OCc1nc2ccccc2c(=O)n1/N=C/c1c[nH]c2ccccc12	1.7	0.3	-2	5	6.9%	24
CC(C)[C@@H]1Cc2[nH]c(=S)[nH]c(=O)c2[C@H](C)O1	.	-0.6	0	9	-0.1%	.
O=C(Nc1ccccc1N1CCCCC1)c1cccc(OC(F)F)c1	1.7	1.4	25	29	4.1%	22
CC(=O)Nc1ccc(C2=NN(CC#N)C(=O)SC2)cc1	-3.5	-0.8	-1	12	3.3%	27
CN1C(=O)C2(NCCc3c2[nH]c2ccccc32)c2ccccc21 (stereo not drawn)	-1.0	-0.4	2	1	-0.4%	-9
CC(C)Nc1cc(C(F)(F)F)nc(-c2ccccn2)n1	-2.8	-0.1	-3	-2	-0.1%	10
COc1ccc(C(=O)NN2CCOCC2)cc1[N+](=O)[O-]	3.7	0.4	-14	-11	-1.0%	-18
N#CCCN1CCN(S(=O)(=O)c2cc(Cl)ccc2Cl)CC1	0.4	-1.0	11	4	0.3%	-1
N#Cc1ccc(NC(=O)c2cccs2)nc1	-1.7	-0.6	-2	7	0.3%	0
Cc1ccc2occ(CC(=O)Nc3c(C)cccc3C)c2c1	.	-0.3	.	.	2.4%	14
COc1ccccc1C(=O)NC1CCCCCCC1	-1.0	-1.2	7	7	0.7%	16

One compound at a time (already shown). Screens in order: D2 agonist, TRPML1 ag, Six1-Eya2 inh, CtBP-E1A inh, PINK1 expr mod, TRPML1 blocker
COc1ccc(C(=O)NN2CCOCC2)cc1[N+](=O)[O-] in the list: 3.7, 0.4, -14, -11, -1.0%, -18
Cc1[nH]c2ccccc2c1C(=O)C(=O)NCc1nnnn1-c1ccc(F)cc1 in the list: -1.2, -0.2, 2, 1, -0.7%, -11
CCCN(CCC)CCCNC(=O)Cn1ncn2c(cc3sc(CC)cc32)c1=O in the list: ., -0.2, ., ., 1.3%, -12
Cc1c(C(=O)N2CCOCC2)oc2ccccc12 in the list: -4.8, -0.6, -1, 1, 0.2%, 10
CN1C(=O)C2(NCCc3c2[nH]c2ccccc32)c2ccccc21 (stereo not drawn) in the list: -1.0, -0.4, 2, 1, -0.4%, -9

(next part)
SMILES	D2 agonist	TRPML1 ag	Six1-Eya2 inh	CtBP-E1A inh	PINK1 expr mod	TRPML1 blocker
CCN(CC)CCCNC(=O)CCCn1c(=O)[nH]c2ccc(Br)cc2c1=O	.	-0.5	.	.	1.5%	8
CCCOc1ccccc1C1NC(=O)NC(C)=C1C(=O)OCCOC(C)C (stereo not drawn)	-1.6	-0.3	2	10	.	2
Cc1noc(C)c1COC(=O)COc1ccc2c(C)cc(=O)oc2c1	-1.5	-0.8	0	0	0.3%	-1
CNC(=O)COC(=O)c1ccccc1Oc1ccccc1	-1.2	1.5	1	-6	-3.4%	-8
CC1(C)S[C@@H]2C(C(=O)OCc3ccccc3)NC(=O)N2C1C(=O)OCc1ccccc1 (stereo partly drawn)	-1.3	3.3&-0.1	-4	.	-0.6%	0
CCN1CCN(c2nc(N(C)c3ccccc3)nc(N)c2[N+](=O)[O-])CC1	-1.7	0.9	-17	-10	-0.9%	13
CCOC(=O)c1ccc2c(c1)sc1nc(-c3ccc(OCC)cc3)cn12	.	-0.2	.	.	-0.4%	2
CCN(CC)C1Oc2cc3c(cc2C(c2cccc(OC)c2O)C1C)OCO3 (stereo not drawn)	0.3	1.6	-17	-4	8.2%	11
COc1ccc(NC(=O)c2cccc3c(-c4ccc(OC)cc4C)coc23)cc1	3.8	0.3	-6	1	0.5%	.
O=c1c2c3c(sc2nc(NCCO)n1CCc1ccccc1)CCCCC3	-2.2	0.0	-12	-5	4.4%	0
CCN(CC)S(=O)(=O)c1ccc(NC(=O)CCNC(=O)c2ccco2)cc1	-7.3	-0.7	-1	4	-1.1%	0
CCOC(=O)N1CCN(C(=O)C2CCC(=O)N(Cc3ccccc3OC)C2)CC1 (stereo not drawn)	-3.6	0.3	3	-1	2.1%	2
O=C(Nc1nc2ccccc2[nH]1)C1CCC1	-0.6	0.5	-15	5	5.8%	-15
CCN(C[C@H]1N[C@@](CC)(C(=O)OC)[C@H]2C(=O)N(Cc3ccccc3)C(=O)[C@@H]12)C(=O)Nc1ccc(C(F)(F)F)cc1	-3.4	-0.2	3	3	3.6%	-1
O=C(NCc1ccco1)C(c1ccccc1)N(Cc1cccnc1)C(=O)Cn1nnc2ccccc21 (stereo not drawn)	-1.1	-0.2	1	8	-0.5%	-5
O=c1[nH]cnc2c1sc1nc3c(c(-c4ccc(Cl)cc4)c12)CCC3	-2.7	-0.9	?	-71*	1.9%	1
CC(C)CC(=O)Nc1ccc2ccccc2c1	-1.3	0.0	0	0	0.6%	-8
O=C(NCc1nc2ccccc2[nH]1)C1=C[C@H](c2ccccc2)C[C@H](OCc2ccc(CO)cc2)O1	0.5	0.0	1	-13	1.0%	-3
Cc1csc(NC(=O)CSc2nnc(-c3ccccc3)o2)n1	1.3	0.5	-1	-5	7.3%	0
COc1ccc(Cl)cc1NC(=O)CN1CCc2ccccc2C1	-4.1	2.9	5	9	2.4%	22
CC(Oc1cccnc1[N+](=O)[O-])C(=O)Nc1ccc(Cl)cn1 (stereo not drawn)	2.1	-0.4	-1	.	0.8%	-4
Nn1c(SCC(=O)NC(=O)NC2CCCC2)nnc1-c1ccccc1F	-1.2	2.1	-1	-4	3.4%[38.3 µM]	22
Clc1ccccc1CONc1ncnc2nonc12	-0.1	1.5	9	.	?	-13
CCCc1cc(=O)n2[nH]c(CCc3ccccc3)nc2n1	-1.2	0.4	-2	8	-3.0%	-5
COc1ccc(N(CC(=O)Nc2ccccc2C(=O)NCC(C)C)S(C)(=O)=O)cc1	0.9	-0.3	-4	2	-0.5%	13
COc1cccc(/C=N/n2c(C3CCCCC3)n[nH]c2=S)c1O	?	1.3	-2	2	-1.2%	-4
CCn1cc(C(=O)NCc2ccc3c(c2)OCO3)c(=O)c2cc(F)c(N3CCN(C)CC3)cc21	-0.9	0.7	-3	10	-1.1%[38.3 µM]	-3
CCCC(=O)Nc1nnc(S(=O)(=O)N(CC(C)C)c2ccccc2)s1	-4.3	.	-2	1	6.4%	.
S=C(NCc1ccccn1)Nc1ccc(Br)cc1Cl	0.9	0.2	-8	0	-0.6%	-1
COc1cccc(NC(=O)Cn2c(=O)n(Cc3nc(-c4ccccc4)no3)c(=O)c3ccccc32)c1	.	0.2	.	.	6.9%	41
O=C(c1ccco1)N1CCN(c2nc3ccc(Cl)cc3s2)CC1	.	1.1	.	.	2.2%	-12
c1ccc(N2CCN(c3nnc(Cc4cccnc4)c4ccccc34)CC2)nc1	3.2	1.4	-7	19	7.7%[38.3 µM]	11
CC1=C(c2ccc(C)c(C)c2)S(=O)(=O)N=C1N1CCC(C(=O)NCc2ccc(C)o2)CC1	.	3.1	.	.	3.4%	-12
CCOC(=O)N/N=C\c1ccc([N+](=O)[O-])s1	2.0	1.9	6	5	8.1%	-8
Cc1ccc(S(=O)(=O)N(C)CC(=O)OCC(=O)NCCN2C(=O)CSC2=O)cc1	-2.4	0.2	3	3	-0.4%	1
CSc1cccc(NS(=O)(=O)c2cccc3nsnc23)c1	-4.0	0.7	-3	-1	3.6%	10
COC(=O)c1ccccc1N(Cc1ccccc1)S(C)(=O)=O	-3.6	-0.2	9	2	0.2%	-1
Cc1cc(Cl)ccc1OCC(=O)N1CCCCC1	-1.2	-1.5	-1	8	0.3%	-8
CC(C)(O)C#Cc1ccc(N2C(c3ccsc3)=Cc3ccc(F)cc3C2c2c[nH]c3ccc(C#N)cc23)cc1 (stereo not drawn)	.	-0.3	9	5	?	.
CCCCNS(=O)(=O)c1ccc2nc(-c3cccnc3)cc(C(=O)NCCC)c2c1	.	-0.1	.	.	3.1%	-19
Cc1cccc(S(=O)(=O)C(C#N)c2nc3ccccc3nc2N2CC(C)OC(C)C2)c1 (stereo not drawn)	0.5	-0.2	-3	7	?	3
NC(=O)CSc1nc2c(c(=O)n1-c1ccccc1)C1(CCCCC1)Cc1ccccc1-2	-6.7	2.1	20	-4	3.7%	5
O=C(NC(=S)NCc1ccccc1)c1cccc(Cl)c1	2.4	2.4	-9	-2	0.0%	9
Cc1nc2ccccc2nc1OCc1ccc([N+](=O)[O-])cc1	1.3	0.3	-3	1	-2.8%	-10
CCN(CC)c1ccc2nc3c(=O)n(C)c(=O)n(C)c3nc2c1	.	?	.	.	-0.2%	29

CtBP-E1A inh, entries above that show a hit
SMILES | D2 agonist | Six1-Eya2 inh | CtBP-E1A inh | PINK1 expr mod | TRPML1 blocker
O=c1[nH]cnc2c1sc1nc3c(c(-c4ccc(Cl)cc4)c12)CCC3 | -2.7 | ? | -71* | 1.9% | 1
